High-throughput results deposited in PubChem BioAssay by National Center for Advancing Translational Sciences (NCATS).
HSD17B inh: blocks hydroxysteroid 17-beta dehydrogenase activity; recombinant HSD17B10, NADH fluorescence kinetic; many of its hits are not listed in these tables; Q99714; Potency, µM (doses to about 57.1 µM), without a hit: at the top dose activity change, negative = inhibition, most hits filed as inhibitors; actives 7.6% (n = 75,000); active = well fitted inhibition curve with a large enough effect; inconclusive = small, poorly fitted or top-dose-only effect; inactive = no such curve, though single readings can be large or run the other way;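 note: the protocol describes HADH2 (HSD17B10) and not the HSD17B4 of the title; nearly all actives have a fitted effect of over 70% in size; most hits overshoot -100% by far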
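20 nM HADH2, pH 9.0 Tris/Tween; cpd preinc 15 min RT; start w/ 1 mM NAD+ + 90 uM b-hydroxybutyryl-CoA; kinetic fluor ex360/em450 q30s x 4 min; delta last-first.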
The depositor's hits bear a star; u = inconclusive; [ ] = dose if it differs, or a comment. % is set by controls: 0 for no effect and ±100 for the full control effect; potency is the fitted concentration of half-maximal effect. This is a subset; count on the stated rates, not on these rows.

SMILES	HSD17B inh
COc1ccc(C2C(C(=O)Nc3cccc(C)n3)c3ccccc3C(=O)N2C)cc1 (stereo unspecified)	-2%
COc1ccc(-c2nc(CSCC(=O)NCC3CCCO3)c(C)o2)cc1OC (stereo unspecified)	u
CC(=O)c1ccc[nH]1	-9%
O=C(CSc1nnnn1-c1ccc(F)cc1)NC1CCCCC1	-1%
CC(C)OCCCNC(=O)c1ccc2c(c1)ncn2C1CCCC1	4%
Cc1nc2ncnn2c(C)c1CCC(=O)NC(C)CCc1ccco1 (stereo unspecified)	13%
CCCn1c(SCC(=O)NCCc2ccccc2)nnc1-c1ccccn1	4%
COC1(C#CC2C=CC(OC(C)=O)C(COC(C)=O)O2)CCCCC1 (stereo unspecified)	-7%[11.4 µM]
O=C(NCCO)C1CCN(S(=O)(=O)c2ccc(F)cc2)CC1	0%
O=C(N1CCCCCC1)N1CCN(C(=O)N2CCOCC2)CC1	14%
Cc1ccc(Cn2c(SCC(C)C)nc3c2c(=O)n(C)c(=O)n3C)cc1	0%
CCCCS(=O)(=O)NC1=NCN(Cc2ccco2)CN1	11%
CCN(CC)CCOC(=O)c1ccc(NC(=O)CCNC(=O)Cn2ccc3ccccc3c2=O)cc1	-7%
Cc1[nH]nc2c1C(=O)CC(C)(C)C2	-30%
CCOC(=O)c1c(C)c(C(=O)NCCN2CCOCC2)c(C)n1C	-1%
COC(=O)c1ccc(COc2ncnc3c(Cl)cc(Cl)cc23)o1	-10%
Cc1cc(C)n(C(CC(=O)N2CCc3ccccc3C2)C(=O)O)n1 (stereo unspecified)	-2%
CC(=O)N1C(=O)c2cccc3cccc(c23)C(=O)N1C(C)=O	25µM*
O=C(Nc1ccccc1)N1CC=C(c2ccccc2)CC1	-18%
COc1ccc(OC(C)C(=O)N2CCN(c3ccccn3)CC2)cc1 (stereo unspecified)	25µM*
O=C(Nc1cccc(F)c1)N1CCCC2(CCN(C(=O)c3ccco3)CC2)C1	2%
O=C(CSc1nc2ccccc2c(=O)n1Cc1ccco1)c1ccc(F)cc1	u
c1ccc(-c2cn3cccnc3n2)cc1	25µM*
O=C(Nc1ccccc1C(F)(F)F)C1CC(=O)N(c2ccccc2F)C1 (stereo unspecified)	5%
Cc1nn(C)c(C)c1S(=O)(=O)N1CCC(C(=O)Nc2ccc3c(c2)OCCO3)CC1	6%
COc1ccc2[nH]c(=O)c(CN(CCN3CCCC3)C(=O)Nc3ccccc3Cl)cc2c1	25µM*
CCOc1cc(S(=O)(=O)N2CCN(Cc3ccccc3)CC2)ccc1Br	15%
c1cnc(Oc2ccc(-c3nnco3)cc2)cn1	-6%
CC(=O)Nc1ccc(S(=O)(=O)Nc2nc(C)cc(-n3nc(C)cc3C)n2)cc1	2%
CN1CCN(S(=O)(=O)c2cccc(S(=O)(=O)c3ccc(Cl)c(Cl)c3)c2)CC1	-1%
Cc1ccc(N2CC(C(N)=O)CC2=O)cc1 (stereo unspecified)	-3%
COc1ccc(C(CC(=O)O)NS(=O)(=O)c2ccc(C)cc2)cc1OC (stereo unspecified)	3%
COC(=O)c1ccc(OCC(=O)Nc2nn(-c3ccccc3)nc2C(N)=O)cc1	3.2µM*
CCOC(=O)Cc1csc(NC(=O)CSc2nc3cccnc3n2CC)n1	1%
O=S(=O)(Nc1ccccn1)c1ccc(Oc2ccccc2)cc1	6%
O=C(O)CCc1nc(-c2ccccc2-n2cccc2)no1	-3%[11.4 µM]
Cc1ccccc1C(=O)N(C)Cc1ccccc1	-12%
CC(=O)Nc1cccc(NS(=O)(=O)Cc2ccc(Cl)cc2)c1	1%
COCCSc1ccccc1C(=O)Nc1nccs1	4%
CCOC(=O)C(NC(C)=O)(Nc1ccc(S(=O)(=O)Nc2onc(C)c2C)cc1)C(F)(F)F (stereo unspecified)	10%
CC(=O)Oc1cccc2c1C(=O)c1c(OC(C)=O)cc(C(=O)O)cc1C2=O	-9%
CC(C)[C@H](NC(=O)CCn1nnc2ccccc2c1=O)C(=O)O	2%
COCC(C)n1c(C)cc(C(=O)COC(=O)c2oc3ccccc3c2C)c1C (stereo unspecified)	u
COc1ccc(-c2noc(CN(C(=O)C(C)(C)C)C(C)C)n2)cc1	-16%
COc1ccc(C)cc1NC(=O)NC1CCN(Cc2ccccc2)CC1	5%

For reference, part of the list above.
SMILES	HSD17B inh
COC(=O)c1ccc(OCC(=O)Nc2nn(-c3ccccc3)nc2C(N)=O)cc1	3.2µM*
CCOC(=O)Cc1csc(NC(=O)CSc2nc3cccnc3n2CC)n1	1%
O=S(=O)(Nc1ccccn1)c1ccc(Oc2ccccc2)cc1	6%
O=C(O)CCc1nc(-c2ccccc2-n2cccc2)no1	-3%[11.4 µM]
Cc1ccccc1C(=O)N(C)Cc1ccccc1	-12%
CC(=O)Nc1cccc(NS(=O)(=O)Cc2ccc(Cl)cc2)c1	1%

Next part:
SMILES	HSD17B inh
COc1cc(NC(=O)c2c(-c3ccccc3Cl)noc2C)c2ncccc2c1	u
CC1=CC(C)(C)N(C(=O)CSc2nnc(-c3ccccc3)o2)c2ccc(C)cc21	-13%
Cc1cc(C)c(C#N)c(Oc2ccc(O)cc2)n1	-1%
O=C(CNS(=O)(=O)c1ccc(Br)s1)NCc1ccc2c(c1)OCO2	7%
Cc1oc(-c2cc(Cl)ccc2Cl)cc1-c1nn2c(C)nnc2s1	-10%
COc1cc(NC(=O)Cc2ccccc2OC)cc(OC)c1	1%
COCc1nnc(NC(=O)CCCOc2ccccc2)s1	7%
CCOC(=O)Nc1ccc(S(=O)(=O)NCCCN2CCOCC2)cc1	0%
O=C(O)c1ccc(NC(=O)C2(c3ccccc3)CCOCC2)cc1	4%
CCOC(=O)C1=C(C)N=c2s/c(=C/c3ccco3)c(=O)n2C1c1cccc(OC)c1 (stereo unspecified)	u
CC1(C)Cc2ccccc2-c2nc(CN3CCOCC3)[nH]c(=O)c21	8%
CCn1cc(CN(C)C(=O)CSc2nc(-c3ccco3)cc(C(F)(F)F)n2)c(C)n1	-3%
CC(C)CC(c1nnnn1C(C)C)N1CCN(c2cccc(Cl)c2)CC1 (stereo unspecified)	9%
CCOC(=O)C1CCN(S(=O)(=O)c2ccc(OCC(=O)OC)cc2)CC1	-7%
CCn1c(C(O)c2ccc(C)cc2)nc2ccccc21 (stereo unspecified)	3%
O=C(CSc1nnc(Cn2cnc3ccccc32)o1)c1ccccc1	2%
COCc1nnc(NC(=O)c2ccc(S(=O)(=O)N(C)c3ccccc3)cc2)o1	-25%
CCOC(=O)Cn1nnnc1CN(Cc1ccc(OC)cc1)Cc1cc2cc(C)cc(C)c2[nH]c1=O	-13%
Cc1csc(NC(=O)CSCC(=O)Nc2ccccc2)n1	-5%
O=C(CNC(=O)c1ccco1)NCCCc1ccccc1	5%
CCOc1ccc(NS(=O)(=O)c2ccc3[nH]cc(C(=O)NC(C)CC)c(=O)c3c2)cc1 (stereo unspecified)	u
CC(=O)c1ccc(NC2OC(C)C(O)C(O)C2O)cc1 (stereo unspecified)	1%
CCOC(=O)N1CCN(S(=O)(=O)c2ccc3c(c2)OCC(=O)N3)CC1	4%
NC1=NC(c2cccc(O)c2)n2c(nc3ccccc32)N1 (stereo unspecified)	-5%
CCOc1ccc(N(CC(=O)NC(C)(C)C)C(=O)c2ccco2)cc1	12%
O=C(Cc1ccc(F)cc1)OCC(=O)c1cc2ccccc2o1	23%
CC(C(=O)Nc1ccc(N2CCOCC2)cc1)N1C(=O)c2ccccc2C1=O (stereo unspecified)	1%
N=C1C=CC=C2C1=NC1(CCCCC1)N2O	-5%
O=C(NCCc1ccc(Cl)cc1)C1CCCN(S(=O)(=O)c2cnc[nH]2)C1 (stereo unspecified)	5%
CN1CCN(c2oc(COc3ccc(-c4ccccc4)cc3)nc2C#N)CC1	-7%

A different layout for 4 compounds above:
O=C(CSc1nnc(Cn2cnc3ccccc32)o1)c1ccccc1
  HSD17B inh: 2%
COCc1nnc(NC(=O)c2ccc(S(=O)(=O)N(C)c3ccccc3)cc2)o1
  HSD17B inh: -25%
CCOC(=O)Cn1nnnc1CN(Cc1ccc(OC)cc1)Cc1cc2cc(C)cc(C)c2[nH]c1=O
  HSD17B inh: -13%
Cc1csc(NC(=O)CSCC(=O)Nc2ccccc2)n1
  HSD17B inh: -5%

Additional entries follow:
SMILES	HSD17B inh
Cc1ccc2c(c1)c1ncnc(N3CCc4ccccc4C3)c1n2C	32µM*
COC(=O)c1ccc(Cc2ccc(C(=O)OC)o2)o1	13%
CCn1c(=O)cc(OCC(=O)N(C)c2ccccc2F)c2ccccc21	-7%
CC1=Nn2c(nc(-c3ccccc3)c2-c2ccccc2)N(CC(N)=O)C(=O)C1	2%
O=C(Nc1cccc(C(F)(F)F)c1)C1CCN(S(=O)(=O)c2cnc[nH]2)CC1	0%
C[C@H]1CCCC2(CC[N+](C)(CCC[N+](C)(C)C)CC2)C1 (stereo partly specified)	2%[11.4 µM]
c1nnc2c3c4c(sc3ncn12)CCC4	4%
NS(=O)(=O)c1cc2c(cc1C(F)(F)F)NCNS2(=O)=O	-30%
CCc1nnc(NC(=O)c2ccc(N3C(=O)CCC3=O)cc2)s1	-5%
CCCOc1ccc(C(=O)Nc2cc(-c3nn4c(C)nnc4s3)ccc2C)cc1	0%
COc1ccccc1C(=O)Nc1cccc(NC(C)=O)c1	-6%
COc1ccc(NC(=O)c2cccnc2N2CCCCC2)cc1	-14%
O=C(OCc1nc2ccccc2s1)c1cccs1	-3%
Cc1ccc(Nc2nnc(SCC(=O)NCc3ccco3)s2)cc1	-5%
Cc1cc(C(=O)O)ccc1[N+](=O)[O-]	-1%
CCOC(=O)N1CCOCCOCCN(C(=O)OCC)CCOCC1	5%
CC(=O)NCc1nc2ccccc2n1Cc1ccccc1C	-3%
CCOc1ccc(NC(=O)CN(C)S(=O)(=O)c2cccs2)cc1	3%
Cc1sc2nc(SCC(=O)N(CCO)CCO)n(C3CCCCC3)c(=O)c2c1C	-4%
CCCN(Cc1cc2cc(C)ccc2[nH]c1=O)C(=O)c1cccc(OC)c1	u
CCNc1nc(NCC)nc(Oc2ccc(OCC)nn2)n1	11%
CCCCCn1c(CCNC(=O)c2cccs2)nc2ccccc21	-6%
O=C1OCCC1Sc1nnc(-c2ccccc2)o1 (stereo unspecified)	3%
Cc1ccc(NC(=O)CCN2CCN(C/C=C/c3ccccc3)CC2)cc1C	-1%
c1cncc(C(c2nnnn2C2CCCC2)N2CCCC2)c1 (stereo unspecified)	11%
COc1cc(C(=O)NCc2ccc(OCCN(C)C)cc2)cc(OC)c1OC	8%
COc1ccc(C2C(C(=O)c3sc(C)nc3C)=C(O)C(=O)N2CCCn2ccnc2)cc1 (stereo unspecified)	1%
CCOc1ccc(C2CC(c3ccc(CC)cc3)n3nc(N)nc3N2)cc1 (stereo unspecified)	-9%
CCOC(=O)Cn1c(=O)c2c(nc(Br)n2CC(=O)OCC)n(C)c1=O	4%
C[C@@H](C(=O)NCc1ccc(C(F)(F)F)nc1)[C@H]1C[C@]1(C)[C@H](NC(=O)OCc1ccccc1)c1ccccc1	6%

Next part (2 carried over from the part before).
SMILES	HSD17B inh
CCOC(=O)Cn1c(=O)c2c(nc(Br)n2CC(=O)OCC)n(C)c1=O	4%
C[C@@H](C(=O)NCc1ccc(C(F)(F)F)nc1)[C@H]1C[C@]1(C)[C@H](NC(=O)OCc1ccccc1)c1ccccc1	6%
O=C(O)CC[P+](c1ccccc1)(c1ccccc1)c1ccccc1	3%[11.4 µM]
Cc1ccc(-c2nn3c(C)nnc3c3ccccc23)cc1S(=O)(=O)NCc1ccco1	-24%
CN(c1ccc(C(=O)NCc2ccccc2)cc1)S(C)(=O)=O	13%
O=S(=O)(c1ccc(Cl)s1)N1CCN(c2ncccn2)CC1	-2%
Cn1c(N)c(C(=O)COC(=O)C2(c3ccc(F)cc3)CCCC2)c(=O)n(C)c1=O	10%
Cc1nn(-c2ccccc2)c2sc(C(=O)N3CCc4ccccc4C3)cc12	-15%
CN1CCN(CCCNc2nc3ccccc3c3nc(-c4ccccc4)nn23)CC1	1%
CC1(C)CC2CC(C)(CN2c2ncnc3ccccc23)C1 (stereo unspecified)	11%
Cc1ccc(C2CC(c3cccc(C)c3)n3nc(N)nc3N2)cc1 (stereo unspecified)	-7%
O=C(CCc1c[nH]c2ccccc12)NCC1CCCO1 (stereo unspecified)	5%
Cc1ccccc1-c1nc(Cc2ccc(Cl)cc2)no1	-1%
CCN(CC)S(=O)(=O)N1CCC(C(=O)NC(C)CCc2ccccc2)CC1 (stereo unspecified)	-6%
CC(=O)N1CCN=C1SCc1ccc(C)cc1	4%
O=C(COc1cccc2cccnc12)Nc1nccs1	-4%
Cn1c(=O)[nH]c(=O)c2c1nc(N1CCCCC1)n2CC(O)CN1CCCCC1 (stereo unspecified)	-1%
CCC(=O)N1CC2(C)CN(C(=O)CC)CC(C)(C1)C2	-6%
CCN1C(=O)C2C(c3cccc(F)c3)NC(C)(C(=O)OC)C2C1=O (stereo unspecified)	1%
COc1ccc(Cl)cc1CN1CCN(c2nc(C)cc(C)c2C#N)CC1	u
Cc1cccc(NC(=O)CSC(N)=O)c1C	32µM*
CCCc1c(O)nc(SCc2ccccc2)[nH]c1=O	13%
CCOc1ccc(NS(=O)(=O)c2ccc(C)c(C(=O)O)c2)cc1	5%
CCC(=O)NCCN1CCN(C(=O)CC)CC1	2%
CSc1nsc(SCC(=O)Nc2ccc3c(c2)OCCO3)n1	-4%
C=CCNc1nc(NCCO)nc(N2CCCC2)n1	-7%
CCOC(=O)N1CCC(NC(=O)CS(=O)(=O)Cc2nc(-c3ccc(C)cc3)oc2C)CC1	u
